Assay outcomes as filed in PubChem.
TRPML1 inh: inhibitors of human TRPML1 channel; Q9GZU1; AID 624415; activity change, negative = inhibition, % (no concentration beside the values); 390,000 tested, 0.02% active; TRPML1-inducible cells, Ca2+ dye fluorescence, FDSS; active compounds read low; inhibition of EC80 agonist-evoked calcium signal; in the data active means activity change below about -50%; inconclusive means about -30% to -50%; inactive means above about -30%;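 note: stimulus is agonist 54-4 at its EC80 concentration; % is set by controls: 0 for no effect and ±100 for the full control effect; compound concentration not given in the record; the text of the record puts the active cut at -80%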
Target sequence (Q9GZU1 whole entry, looked up): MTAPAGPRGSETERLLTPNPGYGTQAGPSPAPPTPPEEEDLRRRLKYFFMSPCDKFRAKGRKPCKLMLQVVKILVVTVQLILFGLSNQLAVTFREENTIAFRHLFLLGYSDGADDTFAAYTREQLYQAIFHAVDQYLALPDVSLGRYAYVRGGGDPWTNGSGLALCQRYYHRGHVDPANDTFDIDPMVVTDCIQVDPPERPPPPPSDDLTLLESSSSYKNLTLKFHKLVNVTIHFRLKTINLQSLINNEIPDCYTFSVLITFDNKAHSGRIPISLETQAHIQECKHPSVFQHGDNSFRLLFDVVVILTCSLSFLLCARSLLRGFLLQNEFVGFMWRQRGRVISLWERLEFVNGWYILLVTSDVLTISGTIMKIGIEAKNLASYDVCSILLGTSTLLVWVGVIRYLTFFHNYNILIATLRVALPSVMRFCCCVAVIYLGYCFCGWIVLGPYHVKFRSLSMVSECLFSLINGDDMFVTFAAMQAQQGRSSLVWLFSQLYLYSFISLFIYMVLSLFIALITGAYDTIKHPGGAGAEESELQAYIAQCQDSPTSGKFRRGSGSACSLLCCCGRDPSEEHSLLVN
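TRPML1-DL cells, Tet-induced overnight (~16 h, 37 °C) at 1,500 cells/well, were loaded with Ca8 no-wash dye plus quencher for 45-90 min at room temperature. Compounds were pinned during FDSS kinetic reading; agonist 54-4 at EC80 (4 uM final) then added.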
TRPV1 potentiator: human TRPV1 potentiation; AID 540277; 320,000 tested, 0.02% active; TRPV1-expressing cells, Fluo-8 calcium influx, capsaicin EC20 potentiation; host cell line not named in the record; control for the full effect not named in the record; potentiation, % at 8.33 µM; Q8NER1; active means potentiation above 80%; inconclusive means 30% to 80%; inactive means below 30%; note: 0% is about no effect
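Fluo-8 calcium influx in TRPV1-expressing cells, kinetic read (ex 480/em 520 nm). Compound added and read 3 min for agonist activity, followed by capsaicin at EC20 final and 2 min further read for enhancement.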
ClpP mod: qHTS Assay for Activators of ClpP; ATP-dependent Clp protease proteolytic subunit (Bacillus subtilis (strain 168)), P80244; purified B. subtilis ClpP, FRET peptide cleavage, 20 min; Potency, µM (top dose mostly 57.5 µM), without a hit: at the top dose activity change, negative = active; 340,000 tested, 1.9% active; active = well fitted falling curve with a large enough effect; inconclusive = small, poorly fitted or top-dose-only effect; inactive = no such curve, though single readings can be large or run the other way; note: potency is the fitted concentration of half-maximal effect; the source files actives as falling curves though it sought activators and does not explain the sign; nearly all actives have a fitted effect of over 65% in size; many hits overshoot -100%
Target sequence (P80244 whole entry, looked up): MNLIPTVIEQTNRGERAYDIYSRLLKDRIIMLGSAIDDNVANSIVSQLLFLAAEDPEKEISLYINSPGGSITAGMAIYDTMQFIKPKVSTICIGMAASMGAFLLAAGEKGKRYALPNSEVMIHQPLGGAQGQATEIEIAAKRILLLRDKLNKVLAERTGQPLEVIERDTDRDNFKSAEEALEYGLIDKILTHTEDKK
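Purified B. subtilis ClpP, 10 microg/mL final in Tris/HCl pH8 with KCl, BSA, glycerol and Tween-20, cleaved an Abz/nitrotyrosine-quenched decapeptide. Fluorescence (ex 320, em 430) was read at 0 and 20 min at room temperature. Delta was normalized to 5.8 microM ADEP and DMSO/no-enzyme controls.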
PINK1 modulator: changes PINK1 expression. PINK1 immunofluorescence, high-content cytometry, 24 h. Potency, µM (highest dose often 76.6 µM), for inactives: at the highest dose activation (PINK1 increase), most hits filed as activators. 410,000 tested, 0.2% active; active = well fitted activation curve with a large enough effect; inconclusive = small, poorly fitted or top-dose-only effect; inactive = flat fitted curve, though single readings scatter; cell line not stated here;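 note: potency is the fitted concentration of half-maximal effect; % of control where 0% means no effect; nearly all actives have a fitted effect of over 65% in size; a mitochondrial uncoupler was the plate control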
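Decision-based qHTS: stable cells, 24 h exposure to five compound concentrations, CCCP as control. Fixed cells stained for PINK1 plus nuclear, mitochondrial and cell markers, cytometer read.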
Menin MLL FP FL: displaces fluorescein MLL peptide from human menin. Fluorescence polarization, fluorescein-MLL peptide displacement from menin. FP activity change, % at 61.4 µM. 290,000 tested, under 10 active. AID 1766; inconclusive = falling polarisation curve, or a change in total fluorescence; inactive = total fluorescence flat and polarisation flat or rising; no compound was filed as active; the % refers to the polarisation; negative = inhibition;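 note: % of control where 0% means no effect; inhibitors lower the polarisation; unlabelled MLL peptide was the positive control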
TRPML1 ag: activates the human TRPML1 channel; Q9GZU1; TRPML1-expressing cells, Ca2+ dye fluorescence, FDSS; host cell line not named in the record; reference of the full effect not given here; activation, % (test concentration not listed); 410,000 tested, 0.12% active; AID 624414; in the data active = activation above about 50%; inconclusive = about 30% to 50%; inactive = below about 30%; note: 0% is about no effect; the text of the record puts the active cut at 80%
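Tetracycline-induced TRPML1-DL cells are seeded and incubated overnight before loading with a no-wash Ca2+ dye and quencher. Agonist activity is taken from the 110 s fluorescence read following compound pin-transfer on an FDSS, before EC80 54-4 challenge.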
Sfp PPTase inh: inhibitors of Bacillus subtilis Sfp phosphopantetheinyl transferase; Biochemical Sfp PPTase activity, qHTS; Potency, µM, for inactives: max response, negative = inhibition, usual class: inhibitors; 310,000 tested, 3.5% active; AID 1490; active = well fitted inhibition curve with a large enough effect; inconclusive = small, poorly fitted or top-dose-only effect, or another doubt; inactive = no such curve, though single readings can be large or run the other way;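 note: the enzyme is Sfp with the accession as filed and its product quenches rhodamine fluorescence; potency is the fitted concentration of half-maximal effect; 0% = enzyme reaction without inhibitor and -100% = no enzyme wells; top concentration of the series not given in the record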
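Compounds were incubated with enzyme (final 15 nM) for 15 min at room temperature before substrate addition started the reaction. Fluorescence at 525 nm excitation, 598 nm emission was recorded immediately and after 30 minutes.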
* hit, by the source's call; ? = inconclusive; . = not tested or not shown; & = joins results of further samples; [ ] = dose if it differs, or a comment.

Value order: TRPML1 inh | TRPV1 potentiator | ClpP mod | PINK1 modulator | Menin MLL FP FL | TRPML1 ag | Sfp PPTase inh
(1) Cc1ncc(CN2CCCC(C(=O)c3cccc(OC(C)C)c3)C2)s1 (stereo not drawn)
  1 | -2 | -0.4% | 2.7% | -1.4 | 1.0 | 23%
(2) c1ccc(CCN2CCCCC2)nc1
  -2 | . | . | -1.4% | . | 0.7 | .
(3) Cc1ccc(CN2c3ccccc3-c3nc(SCC(=O)NCc4ccccc4)ncc3S2(=O)=O)cc1
  -8 | . | ? | -0.4% | . | 1.8 | .
(4) Cc1nn(Cc2ccccc2Cl)c(Cl)c1C(=O)OCC(=O)NC(=O)NC1CCCCC1
  -8 | 11 | -1.6% | -2.0% | 3.6 | 0.6 | -2%
(5) Cc1cccnc1-n1c(CN2C(=O)c3ccccc3C2=O)nc2ccccc2c1=O
  -7 | -2 | -3.2% | -1.6% | -0.7 | 0.1 | 26%
(6) O=C(c1cc(C(=O)NCc2ccccc2)c(=O)n(Cc2ccccc2)c1)c1cc(Br)ccc1O
  -15 | -2 | 12% | 2.6% | 5.0 | 1.4 | 10%
(7) CC(C)=CCc1c(O)cc2c(c1O)C(=O)CC(c1ccc(O)cc1)O2 (stereo not drawn)
  . | -9 | 0.5% | -0.6% | -1.5 | . | -16%
(8) CCCC(C)n1[nH]c(=O)c2c1NC(=O)CSC2c1ccc(OC)c(OC)c1 (stereo not drawn)
  11 | 3 | -6.7% | 1.2%[38.3 µM] | -1.1 | -0.7 | 19%
(9) CN(c1ccccc1)c1ccc([N+](=O)[O-])c2nonc12
  4 | ? | -0.3% | 3.6% | ? | -1.0 | -10%
(10) O=C(c1cn(Cc2ccccc2F)c2ncccc12)C(F)(F)F
  9 | -20 | 1.2% | 9.2% | 0.3 | -0.5 | 1%
(11) O=C(COc1ccc(Cl)cc1)N(c1ccccc1Cl)C1CN2CCC1CC2 (stereo not drawn)
  25 | 7 | -3.4% | -3.9% | -1.5 | 3.5 | 19%
(12) CC1=CC(=O)C2=C(C)CC(O)C3C(C)C(=O)OC3C12 (stereo not drawn)
  8 | -3 | -1.9% | -0.8% | 1.7 | -0.5 | -3%
(13) NC(Cc1ccccc1)c1nc(-c2ccccc2)no1 (stereo not drawn)
  . | -2 | -2.6% | 0.0% | -0.3 | . | 5%
(14) O=C(Nc1ccc(C(=O)O)cc1)Oc1ccc(N(CCCl)CCCl)cc1
  . | . | 0.8% | -0.8% | . | -0.4 | .
(15) Cc1ccc2c(c1)Oc1ccccc1N=C2
  25 | . | -0.3% | 1.2% | . | 5.7 | .
(16) CN(C)C(=O)Oc1ccc(OC(=O)N(C)C)cc1
  -4 | -10 | 1.3% | -1.5% | 3.3 | -0.9 | 8%
(17) CSc1nc(N)c(N=Nc2ccc([As](=O)(O)O)cc2)c(=O)[nH]1
  10 | 6 | -1.3% | -0.4% | ? | -0.7 | 2.8µM*
(18) CC1=C(C)CC2(C(=O)NC(=O)NC2=O)C(C)C1 (stereo not drawn)
  1 | . | -1.8% | -1.6% | . | -0.5 | .
(19) Cc1cc(OCC(=O)N2CCN(CCc3ccncc3)CC2)cc(C)c1Cl
  -9 | . | 2.0% | -0.9% | . | -1.0 | .
(20) COC(=O)C1=C(c2cccc(OCc3ccccc3)c2)C[C@@H]2CC[C@H]1N2C(=O)NCCc1ccc(F)cc1
  11 | 5 | 1.0% | 0.2% | . | 1.2 | .

Overlap with the part before: 3 compounds, followed by the next part.
Value order: TRPML1 inh | TRPV1 potentiator | ClpP mod | PINK1 modulator | Menin MLL FP FL | TRPML1 ag | Sfp PPTase inh
(18) CC1=C(C)CC2(C(=O)NC(=O)NC2=O)C(C)C1 (stereo not drawn)
  1 | . | -1.8% | -1.6% | . | -0.5 | .
(19) Cc1cc(OCC(=O)N2CCN(CCc3ccncc3)CC2)cc(C)c1Cl
  -9 | . | 2.0% | -0.9% | . | -1.0 | .
(20) COC(=O)C1=C(c2cccc(OCc3ccccc3)c2)C[C@@H]2CC[C@H]1N2C(=O)NCCc1ccc(F)cc1
  11 | 5 | 1.0% | 0.2% | . | 1.2 | .
(21) C=CCn1cc(C=C2C(=O)N(C)C(=O)N(C)C2=O)c2ccccc21
  4 | 6 | -0.5% | -1.8% | ? | -0.5 | -5%
(22) CN(C)CC(C(=O)Cc1ccccc1)c1ccccc1 (stereo not drawn)
  6 | . | . | -4.6% | . | 7.1 | .
(23) O=C1C2CCCN2C(c2cccnc2)N1c1cccc(Cl)c1 (stereo not drawn)
  40 | -2 | 1.0% | 0.9% | 4.5 | -0.6 | 13%
(24) CC(Cc1ccccc1)NC(=O)C(c1ccc(N)cc1)c1ccc(N)cc1 (stereo not drawn)
  -7 | -3 | 0.4% | 0.8% | -3.1 | -0.1 | 10%
(25) NC(=S)N/N=C/c1coc2ccccc2c1=O
  -13 | -6 | -5.0% | 1.0% | 1.5 | -0.1 | 6%
(26) CC[N+]12CCC(CC1)C(=C(c1ccccc1)c1ccccc1)C2
  4 | 0 | -19% | -1.7% | -18 | 0.0 | -10%
(27) CC1CN(c2ccc([N+](=O)[O-])cc2Cl)CCN1 (stereo not drawn)
  4 | -4 | 0.1% | -0.7% | -1.3 | -0.1 | -23%
(28) COC(=O)C1=C(c2ccc(F)cc2OCc2ccccc2)C[C@@H]2CC[C@H]1N2C(=O)NCc1cc(C)oc1C(F)(F)F
  22 | . | 0.4% | 0.9% | . | 0.0 | .
(29) O=c1c2ccccc2nc(/C=C\c2ccccc2[N+](=O)[O-])n1-c1ccccc1O
  0 | . | . | -1.8% | 7.7 | 1.7 | 3%
(30) CCOc1ccc2nc(NC(=O)c3cccn(Cc4ccccc4)c3=O)sc2c1
  18 | . | 0.1% | 0.7% | . | -0.9 | .
(31) O=C(CCc1ccccc1)N1Cc2cc(N3CCCCC3)ccc2-n2nncc2C1
  . | . | -10% | -0.6% | . | -0.6 | .
(32) CN1CC(C(=O)c2ccc(F)cc2)C(c2ccc(F)cc2)C1 (stereo not drawn)
  . | -7 | 2.2% | -0.2% | -7.0 | . | -2%
(33) O=C1CC(=O)N(c2cccc(F)c2)C(=O)N1
  -4 | 2 | 0.4% | 0.8% | 10 | -0.1 | -9%
(34) COc1cccc(OC)c1C1=NCC(=O)Nc2c1oc1ccc(Br)cc21
  2 | -1 | -2.0% | 3.6% | 0.8 | -1.4 | -12%
(35) Cc1ccc(S(=O)(=O)CC(=O)c2cc(C)c(OC(=O)N(C)C)c(C)c2)cc1
  -7 | 4 | . | 0.7% | 3.2 | 0.8 | 11%
(36) CC(C)Cc1nc(N2CCNCC2)c(C#N)c2c1CCC2
  29 | 3 | . | -1.4% | 0.5 | 1.6 | -10%
(37) COC(=O)C1=C(c2cccc(OCc3ccccc3)c2)C[C@@H]2CC[C@H]1N2C(=O)NCc1cccc(F)c1
  11 | -13 | -1.8% | 0.7% | . | 3.7 | .
(38) CCCCn1c(O)c(C(CC)=Nc2ccc(OCC)cc2)c(=O)[nH]c1=O
  7 | 16 | -8.6% | -1.2% | 8.4 | 0.6 | -4%
(39) COC(=O)C1CN(C#N)N(c2ccc(Cl)cc2)C12c1ccccc1-c1ccccc12 (stereo not drawn)
  7 | -1 | -1.5% | -1.8% | 2.0 | -0.7 | -17%
(40) CC1CCC/C=C/C2CC(O)CC2C(O)/C=C/C(=O)O1 (stereo not drawn)
  -13 | -11 | 1.1% | -2.2% | 0.7 | 0.9 | -1%
(41) CN(C)C(=O)Oc1ccc2c(=O)c(Oc3ccccc3Br)coc2c1
  22 | 7 | . | 5.8% | -14 | 0.8 | 1%
(42) CCC(=NCc1cccnc1)c1c(O)n(-c2ccc(C)cc2)c(=O)[nH]c1=O
  -12 | -13 | -0.1% | 1.0% | 3.7 | -0.3 | 15%
(43) COc1ccc(C)cc1NC1=NC(C)(C)CS1
  16 | 2 | -0.5% | 9.2% | -0.7 | -1.8 | 24%
(44) CCCCn1nc(C)c(C(=O)O)c1Cl
  19 | 7 | 1.1% | -0.2% | -0.4 | -0.8 | 25%
(45) CCOP(=O)(C#CC(C)(C)C)C(O)(c1ccccc1)C(F)(F)F (stereo not drawn)
  -11 | 10 | 0.9% | -1.7% | 0.8 | 1.7 | -3%
(46) Cc1ccc(S(=O)(=O)c2nnn3c2nc(N2CCC(C(N)=O)CC2)c2cc(Cl)ccc23)cc1C
  11 | . | ? | -0.6% | . | 1.9 | .
(47) CN1CCN(S(=O)(=O)c2ccc(Cl)nc2)CC1
  -23 | -6 | -2.0% | -0.2% | 1.9 | 0.7 | 9%
(48) CSc1ncc(Cl)c(C(=O)O)n1 (tested in a mixture with another compound)
  17 | 2 | 1.6% | 1.0% | -3.0 | 0.1 | 1%
(49) Nc1ccccc1N=Cc1c(O)n(CCC2=CCCCC2)c(=O)[nH]c1=O
  -15 | 24 | -8.5% | 10% | 16 | 0.3 | 14%
(50) CS(=O)(=O)Nc1ccc(Cc2noc(-c3ccc4[nH]cc(CCN)c4c3)n2)cc1
  . | -2 | . | . | -1.1&-1.7 | . | -5%&19%&-15%
(51) CC(C(N)=O)N1CC(c2ccc(Cl)cc2)CC1=O (stereo not drawn)
  7 | -9 | 0.9% | -0.6% | 5.0 | -1.1 | 26%
(52) CCC(C)(C)n1nnnc1CN1CCC(n2c(C)nc3cc(C(F)(F)F)ccc32)CC1
  6 | 7 | -2.0% | 3.1% | -4.1 | 0.9 | 3%
(53) Cc1ccc(-c2nc(N3CCOCC3)s[n+]2-c2ccccc2)cc1
  -1 | 0 | ? | 1.6% | -0.7 | 0.2 | ?
(54) COc1ccc(C(c2ccc(OC)cc2)C(Cl)(Cl)Cl)cc1
  -11 | 2 | -2.0% | ? | -1.6 | 1.0 | -6%
(55) CS(=O)(=O)c1ccc(C(=O)N2CCC(C(=O)O)(c3ccccc3)CC2)cc1
  12 | -2 | . | 0.3% | 2.1 | -0.2 | 17%
(56) Cc1cccc(NC(=O)CSc2nnc([C@@H](N)Cc3c[nH]c4ccccc34)o2)c1C
  26 | 6 | -3.6% | 0.0% | 1.1 | 1.9 | -12%
(57) CC(=O)Nc1ccccc1OC(=O)N(C)C
  7 | 8 | -0.9% | 2.9% | -0.3 | 0.4 | 12%

Not all compounds are listed, so the mix of outcomes need not match the whole.
